# NS1 function inh: qHTS Assay for Inhibitors of Influenza NS1 Protein Function; S. cerevisiae slowed by influenza A NS1, growth recovery by OD600; Potency, µM (doses to about 46.1 µM), inactives show at the top dose activity, positive = more growth; 270,000 compounds, 0.4% hits; also: actives are rising curves; nearly all actives have a fitted effect of over 50% in size
#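 OD600 was taken as the measure of yeast growth restored by compound in an NS1-expressing S. cerevisiae strain. Cells had been washed out of glucose medium and diluted 1:100 into galactose -URA medium, pH 6.0.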
# Cruzain inh noDet: qHTS Assay for Promiscuous and Specific Inhibitors of Cruzain (without detergent) | Cruzipain (Trypanosoma cruzi), P25779 | purified cruzain, Z-FR-AMC fluorescence, no detergent | Potency, µM, inactives show max response, negative = inhibition, most hits filed as inhibitors | 200,000 compounds, 2.3% hits; active = well fitted curve in the direction sought with a large enough effect; inconclusive = small, poorly fitted or top-dose-only effect, or another doubt; inactive = no such curve, though single readings can be large; an effect the other way counts as inactive or inconclusive;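 also: plate controls were enzyme without inhibitor for no effect and buffer without enzyme for full effect; nearly all actives have a fitted effect of over 40% in size; top concentration of the series not given in the record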
# Target sequence (P25779 123-467 limits assumed): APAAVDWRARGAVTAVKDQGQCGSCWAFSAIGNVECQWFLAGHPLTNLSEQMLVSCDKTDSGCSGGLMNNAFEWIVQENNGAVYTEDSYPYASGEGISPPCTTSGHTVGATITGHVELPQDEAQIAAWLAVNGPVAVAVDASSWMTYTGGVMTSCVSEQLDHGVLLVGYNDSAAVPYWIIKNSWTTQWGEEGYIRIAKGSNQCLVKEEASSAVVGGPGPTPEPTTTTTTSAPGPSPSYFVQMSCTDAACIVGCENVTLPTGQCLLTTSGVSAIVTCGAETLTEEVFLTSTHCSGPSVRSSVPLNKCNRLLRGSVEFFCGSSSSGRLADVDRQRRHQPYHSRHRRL
#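 Purified cruzain at 1.5 nM, pre-incubated 15 min with compound at room temperature in 100 mM sodium acetate pH 5.5, 5 mM DTT, 0.00005% Triton X-100. Reaction started with 2 uM Z-FR-AMC; AMC fluorescence increase over 60 s gives rate.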
# StopGo reporter: High Throughput Screening for Foot and Mouth Disease Virus Antivirals; human cells with a luciferase reporter of 2A StopGo recoding; control for the full effect not named in the record; Potency, µM (titrated, usually from 57.9 µM), for the others: top-dose signal change, negative = less light; 410,000 compounds, 1.2% hits; AID 1159524, 2015; active = well fitted falling curve with a large enough effect; inconclusive = small, poorly fitted or top-dose-only effect; inactive = no such curve, though single readings can be large or run the other way; tested in HEK293T cells; also: % is scaled to controls: 0 for no effect and ±100 for the full control effect; nearly all actives have a fitted effect of over 45% in size; luciferase light after 4 h
# SARS PLP yeast: qHTS of Yeast-based Assay for SARS-CoV PLP; S. cerevisiae expressing SARS-CoV PLpro, growth rescue; control for the full effect not named in the record; 330,000 compounds, 0.19% hits; AID 485353, 2010; Potency, µM (top dose mostly 32.9 µM), inactives show top-dose activity, positive = growth rescue; also: 0% is about no effect; nearly all actives have a fitted effect of over 55% in size; growth read by luminescence after 48 h
# RE007 growth inh: qHTS Assay for Inhibitors of the HIV-1 protein Vpr | 360,000 compounds, 0.21% hits | S. pombe RE007 Vpr strain, BacTiter-Glo ATP luminescence, 24 h; control for the full effect not named in the record | AID 651644, 2012 | Potency, µM (titrated, usually from 92.2 µM), for inactives: at the highest dose activity change, negative = less growth; active = well fitted falling curve with a large enough effect; inconclusive = small, poorly fitted or top-dose-only effect; inactive = no such curve, though single readings can be large or run the other way;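 also: % is scaled to controls: 0 for no effect and ±100 for the full control effect; nearly all actives have a fitted effect of over 50% in size; the assay follows cell death caused by Vpr and the record does not say whether a fall means rescue or toxicity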
#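 Fission yeast strain RE007, carrying one chromosomally integrated HIV-1 vpr copy, was seeded at OD 0.01 in PMG+AL medium with 23 nL pinned compound. After 24 h at 30 °C and 99% humidity, viability was read by BacTiter-Glo luminescence.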
# Marburg entry inh: qHTS for inhibitors of binding or entry into cells for Marburg Virus; Marburg virus pseudotyped entry inhibition, cell reporter; control for the full effect not named in the record; about a third of the inactives were read at about 46 µM; 300,000 compounds, 1.8% hits; Potency, µM (doses to about 37.8 µM), inactives show top-dose activity change, negative = inhibition, usual class: inhibitors; active = well fitted inhibition curve with a large enough effect; inconclusive = small, poorly fitted or top-dose-only effect, or effect the other way; inactive = flat fitted curve, though single readings scatter; tested in HEK293 cells; about a fifth of its hits are not listed in these tables; also: % is scaled to controls: 0 for no effect and ±100 for the full control effect; luciferase read-out
# Lassa entry inh: qHTS for Inhibitors of binding or entry into cells for Lassa Virus. Lassa virus pseudotype entry inhibition, cell reporter; control for the full effect not named in the record. Potency, µM (highest dose often 37.9 µM), for inactives: at the highest dose activity change, negative = inhibition, actives largely listed as inhibitors. 300,000 compounds, 1.2% hits; active means well fitted inhibition curve with a large enough effect; inconclusive means small, poorly fitted or top-dose-only effect, or effect the other way; inactive means flat fitted curve, though single readings scatter; tested in HEK293 cells; also: % is scaled to controls: 0 for no effect and ±100 for the full control effect; nearly all actives have a fitted effect of over 50% in size; luciferase read-out
# Cruzain inh Det: qHTS Assay for Promiscuous and Specific Inhibitors of Cruzain (with detergent). AID 1478, 2009. 200,000 compounds, 0.43% hits. purified cruzain, Z-FR-AMC fluorescence, 0.01% Triton. Potency, µM, for inactives: max response, negative = inhibition, most hits filed as inhibitors; active = well fitted curve in the direction sought with a large enough effect; inconclusive = small, poorly fitted or top-dose-only effect, or another doubt; inactive = no such curve, though single readings can be large; an effect the other way counts as inactive or inconclusive;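 also: plate controls were neutral wells for no effect and buffer without enzyme for full effect; nearly all actives have a fitted effect of over 40% in size; top concentration of the series not given in the record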
#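 Z-FR-AMC hydrolysis (2 uM substrate) by cruzain (1.5 nM) monitored kinetically at ex 360/em 450 nm after 15 min room-temperature compound exposure; 0.01% Triton X-100, pH 5.5, 5 mM DTT.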
# * hit, by the source's call; ? = inconclusive; . = not tested or not shown; & = joins results of further samples; [ ] = remark or other dose. Unless noted, calls follow the shape of the dose curve; as a rule, active means well fitted rising curve with a large enough effect; inconclusive means small, poorly fitted or top-dose-only effect; inactive means no such curve, though single readings can be large or run the other way. Potency is read from the fitted curve at half-maximal effect. Compounds were not picked by outcome, and some 4.7% of all compounds hit somewhere here.
SMILES,NS1 function inh,Cruzain inh noDet,StopGo reporter,SARS PLP yeast,RE007 growth inh,Marburg entry inh,Lassa entry inh,Cruzain inh Det
CCc1c(C)nc2ncnn2c1NC1CCCc2ccccc21 (stereo not drawn),-1.1%,.,?,0.0%,3.1%,0.1%,-12.6%,.
COc1ccc(NC(=O)[C@H](C)NC(=O)[C@@H]2Cc3ccccc3CN2C(=O)OC(C)(C)C)cc1,4.1%,.,-6.6%,?,8.1%,.,.,.
CCN(CCCNC(=O)C1CCN(S(=O)(=O)c2c(C)[nH]c(=O)[nH]c2=O)CC1)c1cccc(C)c1,-2.8%,5.9%,-3.3%,-11.5%,-9.5%,?,1.6%,-1.7%
CC(C)=CCN1CCC(n2nccc2NC(=O)c2ccccc2Cl)CC1,8.3%,.,-16.5%,-3.0%,1.2%,.,.,.
O=C(CSc1n[nH]c(-c2ccncc2)n1)Nc1ccc(F)cc1,1.2%,.,-7.8%,-3.1%,3.4%,-5.8%,9.3%,.
CC1CCCN(C(=S)Nc2ccc(S(=O)(=O)N3CCCCC3)cc2)C1 (stereo not drawn),-6.2%,.,-4.3%,-0.7%,13.5%,-22.4%[46.1 µM],-14.3%[46.1 µM],.
NC(=S)N/N=C/c1ccc(-c2cc(Cl)cc(Cl)c2)o1,-10.7%,10µM*,-26.0%,.,-5.7%,-28.7%,-28.6%,4.47µM*
CCOc1ccccc1N(C)C(=O)Cn1cnc2sc(C)c(S(=O)(=O)N3CCC(C)CC3)c2c1=O,.,0.1%,-15.3%,.,.,3.0%[46.1 µM],0.5%[46.1 µM],-0.7%
CC1Cc2ccccc2N1C(=O)CSc1nnc2n1C(C)(C)Cc1ccccc1-2 (stereo not drawn),-15.5%,27.0%,?,1.9%,0.5%,0.0%&-19.6%,-27.2%,-2.7%
CS(=O)(=O)c1ccccc1C(=O)N1CCN(S(=O)(=O)c2ccc(C3CCCCC3)cc2)CC1,.,.,?,-12.2%,2.5%,?,?,.
COc1ccc(/C=C2\N=C(C)OC2=O)cc1OC(C)=O,-0.6%,.,-24.6%,-0.4%,7.4%,.,.,.
CC1(c2ccc(Cl)cc2)CC(C)(C)N(C(=O)c2cccc(F)c2)c2ccccc21 (stereo not drawn),.,?,-6.2%,.,.,.,-13.8%[46.1 µM],1.4%
COc1ccc(NC(=O)Cn2nnc(C(N)=O)c2N)c(OC)c1,-1.8%,0.1%,-1.9%,-5.5%,-9.2%,23.5%,10.6%,5.1%
CCOC(=O)c1[nH]c2ccc(Br)cc2c1NC(=O)CCN1CCCC(C)(C)C1,?,-5.5%,-9.6%,9.6%,-8.3%,?,?,-2.5%
COc1ccc(S(=O)(=O)N2CCOCC2)cc1NC(=O)CSc1ncccn1,.,.,6.7%,5.9%,-2.1%,12.2%,1.6%,.
COc1cccc(C(C)NC(=O)Cc2cccs2)c1 (stereo not drawn),20.4%,.,1.0%,?,1.4%,21.7%,3.4%,.
Cc1ccc(N=c2ssnc2Cl)cc1,-117.9%,-13.8%,-17.2%,-45.3%,-91.9%,-23.6%,?,-0.6%
CCc1ccccc1NC(=O)C1=CN2CCS(=O)(=O)N=C2C=C1,.,.,-20.7%,2.1%,4.6%,0.5%,17.7%[46.1 µM],.
CCN(C(=O)CSc1nc2ccccc2nc1Cc1ccccc1OC)c1ccccc1,.,-13.5%,37.0%[activator],.,.,.,3.0%[46.1 µM],-2.0%
O=C(CN1C(=O)c2ccccc2C1=O)c1ccccc1,-0.9%,4.0%,24.6%,-23.9%,3.7%,-5.8%,-0.5%,2.8%
COc1ccccc1NC(=O)Nc1ccccc1C(N)=O,-2.1%,.,23.1%,1.0%,10.9%,.,.,.
NC(=O)COc1ccccc1C(=O)NC12CC3CC(CC(C3)C1)C2,0.9%,.,-9.6%,0.9%,9.4%,6.0%,?,.
C=C(C)C1CC=C(C)/C(=N\NC(=O)CNc2cccc3ccccc23)C1 (stereo not drawn),3.3%,-11.7%,0.2%,?,-1.9%,.,.,-8.9%
Cn1cc(CCC(=O)NCc2cccc(Cl)c2)c2ccccc21,-7.2%,.,1.6%,-6.0%,-10.7%,?,-10.9%[46.1 µM],.
CCOC(=O)c1ccc2[nH]cc(C(C)=O)c(=O)c2c1,-3.7%,10.3%,-9.7%,-26.2%,-14.8%,7.6%,-4.8%,-7.5%
CN(C)[C@H]1N(C(=O)c2ccc(Br)cc2)N=C2c3ccccc3S(=O)(=O)N21,6.5%,15.4%,43.2%[activator],-3.8%,7.3%,22.5%,-4.0%,1.2%
CNC(=O)c1sc(Nc2ccc(OCc3ccccc3)cc2)nc1C,-6.9%,.,47.3%[activator],-1.7%,1.4%,-1.3%[46.1 µM],?,.
Cc1ccc(CNC(=O)C(NS(=O)(=O)c2cccs2)C(C)C)cc1 (stereo not drawn),1.1%,-5.6%&-1.7%,-11.3%,-0.4%,3.3%,-0.2%[46.1 µM],-8.7%[46.1 µM],-4.5%&-4.1%
CC1(C)[N+]([O-])=C2C(=[N+]([O-])C1(C)C)c1ccccc1/C2=N\O,9.2%,-22.9%,-22.2%,3.3%,6.0%,6.8%,1.7%,-0.9%
CCCCc1c(O)c2ccccc2n(CCCC)c1=O,-40.0%,-1.7%,-0.7%,-20.3%,-8.1%,10.8%,5.7%,-4.5%
O=C(Nc1c(F)cccc1F)c1ccc2c(c1)CCN2S(=O)(=O)c1ccccc1,17.0%,.,0.316µM*,11.6%,-6.4%,-25.5%[46.1 µM],.,.
Cc1cc2ncc(-c3ccc(Cl)cc3)cn2n1,.,.,23.8%,-1.2%,-3.2%,6.6%,?,.
NC1=NC[C@@H](Cc2ccc(O)cc2)N1CCc1cc(C(F)(F)F)cc(C(F)(F)F)c1,2.9%,.,-0.8%,-0.7%,1.4%,.,.,.
COc1ccccc1CNC(=O)c1ccc(CNc2c(N3CCCC3)c(=O)c2=O)cc1,-35.1%,-10.7%,-4.2%,-3.3%,-1.3%,-0.1%,-3.4%,-3.4%
NC(=O)C1CCCc2c1n(Cc1ccccc1)c1ccccc21 (stereo not drawn),-3.2%,.,-17.2%,-0.5%,0.4%,?,6.0%[46.1 µM],.
COc1ccc2c(c1)c(C(=O)N1CCN(C)CC1)c(C)n2-c1ccccc1,-5.1%,-5.4%,5.4%,1.8%,24.7%,2.7%,-2.9%,5.3%
N#Cc1cnn(-c2ncnc3sc(-c4ccccc4)cc23)c1N,-2.4%,?,21.7%,.,18.2%,3.8%,-9.0%,7.1%
COC(=O)COc1ccc(S(=O)(=O)Nc2ccc3c(c2)OCO3)cc1,0.7%,-8.2%,.,?,-7.8%,-1.6%,20.9%,-10.0%
CCCCN(C(=O)c1c(C)noc1C)c1c(N)n(CCCC)c(=O)[nH]c1=O,.,.,-13.1%,0.9%,-20.7%,-0.3%,11.0%,.
c1ccc(-n2ccnc2)cc1,4.3%,.,0.0%,9.9%,-3.9%,.,.,.
O=C(Nc1ccc2oc(-c3cccc4c(Br)cccc34)nc2c1)c1ccc(F)cc1,.,15.8%,-16.8%,.,.,.,9.7%[46.1 µM],-0.1%
CSCC(C)N1CCC(N2CCC(C(=O)NCc3ccccn3)CC2)CC1 (stereo not drawn),0.4%,.,-13.8%,?,4.2%,.,.,.
O=C(c1cc(-c2ccc(Cl)cc2)on1)N1CCN(c2ccccc2)CC1,13.7%,.,0.0%,-1.3%,4.5%,26.3%[46.1 µM],?,.
N=C1SCC(=O)N1c1ncc(Cc2ccc(F)cc2)s1,-65.0%,.,-10.1%,-6.2%,28.2µM*,?,-24.8%,.
Cc1cccc(CNC(=O)c2ccc(C)c(-n3c(C)nc4cccnc43)c2)c1,.,16.7%,-3.1%,.,.,.,?,-6.8%
CC1CCN(C(=O)c2ccc(CSc3ccc(Cl)cc3)cc2)CC1,-10.1%,-10.1%,0.0%,-0.2%,8.0%,-1.8%,-4.5%,-6.1%
COc1ccc(NC(=O)c2cc3c(CO)cnc(C)c3oc2=Nc2cccc(C)c2)c(OC)c1,-2.7%,.,-6.5%,-1.5%,10.0%,25.0%[46.1 µM],15.9%[46.1 µM],.
CCOc1ccc(NC(=S)N(CCN2CCOCC2)Cc2cc3cc4c(cc3[nH]c2=O)OCO4)cc1,5.8%,.,-4.6%,3.4%,-9.9%,-16.9%,-18.2%,.
CCN(CC)CCCN1C(=O)c2oc3ccccc3c(=O)c2C1c1cccnc1 (stereo not drawn),-8.9%,-8.6%,24.8%,-2.9%,2.4%,12.2%,20.0%,1.4%
CCC(=O)N1CCc2cc(OC)c(OC)cc2C1COc1ccc(OC)cc1 (stereo not drawn),.,.,-11.1%,0.3%,-3.0%,?,-29.7%,.
[N-]=[N+]=NC1C[C@H](n2ccc(=O)[nH]c2=O)O[C@@H]1CO (stereo partly drawn),-11.6%,8.9%,-19.3%,5.5%,-16.4%[18.4 µM],-2.8%,-9.5%,-1.8%
COCc1nnc(NC(=O)c2c(-c3c(Cl)cccc3Cl)noc2C)s1,-15.0%,.,-10.7%,-1.4%,4.2%,-4.5%[46.1 µM],4.3%[46.1 µM],.
Cc1onc(-c2ccccc2Cl)c1C(=O)NCc1ccco1,-20.3%,-7.3%,.,1.5%,2.3%,25.5%,?,-5.5%
O=C(O)CC1(CC(=O)Nc2nccs2)CCCCC1,.,.,11.6%,.,1.7%,?,29.5%,.
CC(=O)Nc1ccc(CN2CCC(CO)(CCOc3ccccc3)CC2)cc1,-1.5%,.,-9.5%,-0.8%,10.7%,?,19.6%[46.1 µM],.
